Compound activity from PubChem BioAssay.
Autofluor counter – compound fluorescence in toxin protease inhibitor counterscreen. fluorescence intensity (no concentration beside the values). compound autofluorescence counterscreen, microsphere flow cytometry; active compounds read high. 360,000 compounds, 3.1% hits;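 active = at least 3 SD above the mean of all compounds, about 16000 in these data; inconclusive = too few beads counted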;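 also: 100 nL of 1 mM stock went into each well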
Sa RN4220 lethal – kills Staphylococcus aureus RN4220. S. aureus RN4220 growth, OD600, 16 h. inhibition, % (no concentration beside the values). 330,000 compounds, 0.33% hits;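 active = z-score of -3 or lower and OD600 up to 0.18 on both plates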;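 also: plate controls were untreated cells for no effect and reference antibiotic for full effect; stock transfer was 100 nL into about 80 µL; one replicate is shown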
Sa ugtP lethal – growth inhibition of S. aureus ugtP deletion strain; S. aureus RN4220 ugtP deletion, OD600 growth, 16 h; some inactives read as strong as hits; growth inhibition, % (no concentration beside the values); 330,000 compounds, 0.54% hits;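 active = z-score under -3 and OD600 up to 0.15 on both plates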;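 also: plate controls were untreated wells for no effect and antibiotic for full effect; wells of about 80 µL received 100 nL stock; the first replicate is given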
PrP 5UTR inh – suppresses PrP 5' UTR mRNA reporter expression; cell-based PrP 5' UTR mRNA reporter, plate reader; inhibition, % (no concentration beside the values); 340,000 compounds, 0.35% hits;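 active = every replicate at 50% or more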;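 also: 0 = median of the neutral control wells; tested in H4 reporter cells; numbers are from one replicate; inactives centre near -14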
BJeLR lethal – kills HRASV12-expressing BJeLR cells. 300,000 compounds, 0.17% hits. inhibition, % (test concentration not listed). BJeLR (HRASV12) viability, CellTiter-Glo ATP luminescence, 48 h; reference of the scale not given here. AID 1554;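 active = replicate mean above 50%; inconclusive = above 50% but judged a plate artefact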;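 also: 50 nL library stock added to about 25 µL; numbers are from one replicate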
Mtb hypoxia inh – inhibitors of hypoxia-regulated fluorescent reporter in Mycobacterium tuberculosis; M. tuberculosis hypoxia-regulated fluorescent reporter, fluorescence; AID 1159583; fluorescence inhibition, % (test concentration not listed); 300,000 compounds, 0.1% hits;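 active = 35 to 45% if threefold the growth effect, above 45% if 1.5-fold the growth effect; inactive = the rest, general growth blockers included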;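 also: wells of about 50 µL received 100 nL stock; 0% = vehicle wells and 100% = reference inhibitor wells; whole bacteria with a GFP reporter of the hypoxia response; strong numbers were not always called active; many hits fall short of the cut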
Mtb hypoxia inh growth – also measured in Mtb hypoxia inh; calls as there; growth inhibition, %; measured here: M. tuberculosis growth (absorbance);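 0% = vehicle and 100% = reference antibiotic; read after six days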
* = called active by the depositor; ? = inconclusive; / = not tested or not shown. Random draw from the library. About 4% of those tested had a hit in this group.

nr	Compound	Autofluor counter	Sa RN4220 lethal	Sa ugtP lethal	PrP 5UTR inh	BJeLR lethal	Mtb hypoxia inh	Mtb hypoxia inh growth
1	O=c1c(=Cc2ccc(CNS(=O)(=O)c3ccccc3)o2)sc2n1CCN=2	/	7.7	-2	/	/	5	5
2	Cn1cc(CC(=O)NCCCN2CCCC2)c2ccccc21	3978	-2.3	-9	-7	7	5	8
3	Cc1nnsc1NC(=O)OCc1ccc(Cl)cc1Cl	2904	2.2	-25	-23	-4	5	8
4	CCN(CC)c1ccc(NC(=O)CSc2nc3ccccc3c(=O)[nH]2)cc1	4517	5.7	-11	-2	1	/	/
5	O=C(NCC(c1cccs1)N1CCOCC1)C1CCN(S(=O)(=O)c2cccc(C(F)(F)F)c2)CC1 (stereo unspecified)	5726	1.0	2	-8	-9	-6	5
6	N#CC1=C(SCC(=O)Nc2nccs2)NC(=O)CC1c1ccccc1 (stereo unspecified)	11266	4.5	4	-9	3	10	20
7	COc1ccccc1C=NNc1cn[nH]c(=O)c1Cl	/	2.0	-9	/	/	3	7
8	OCCC1CN(Cc2ccccc2-c2ccco2)CCN1Cc1ccccc1 (stereo unspecified)	4418	5.3	5	3	15	-8	3
9	CCN(CC(=O)NCc1ccc(Cl)cc1)C(=O)c1oc2ccccc2c1C	5235	2.8	2	-16	-7	10	8
10	COc1ccc(CCNC(=O)c2cc(S(=O)(=O)N(C)c3ccccc3)ccc2Cl)cc1	2581	1.3	6	-9	6	-10	-6
11	O=C1SC(SCc2ccccc2)=N/C1=C\c1ccco1	23038*	7.4	46	-5	22	7	2
12	CCOC(=O)CCN(c1ccccc1)S(=O)(=O)c1ccc(-c2ccc(=O)[nH]n2)s1	4346	8.5	2	-2	-2	2	-4
13	Cc1ccc(NCc2ccccc2O)c(C)c1	2742	2.7	-3	-24	1	1	6
14	CCCN(C1CCS(=O)(=O)C1)S(=O)(=O)c1cc(OC)ccc1OC (stereo unspecified)	3058	3.2	-2	2	/	6	1
15	COc1cccc(C=Nn2c(COc3ccccc3)n[nH]c2=S)c1	/	5.5	-1	/	/	8	3
16	COc1ccc(NC(=O)CSc2nnc3ccc(-c4cccnc4)nn23)c(OC)c1	/	2.9	1	-8	2	6	9
17	COc1ncc(-c2ccc3c(c2)S(=O)(=O)c2cccc(C(=O)O)c2C3=O)cn1	2867	-10	1	-17	/	2	8
18	COc1ccccc1C(=O)NC(=S)/C=C1/N(C)c2ccccc2C1(C)C	2973	-0.6	0	-11	1	0	-21
19	CC(=O)Nc1ccc(S(=O)(=O)Nc2ccc(N3CCOCC3)cc2)cc1	3304	-9.9	-5	-3	3	5	9
20	COc1ccc(N(C(=O)c2ccc(Br)o2)C2C=CS(=O)(=O)C2)cc1 (stereo unspecified)	5330	5.8	0	-13	4	10	13
21	CCCC1OC(c2cc3c(cc2Cl)OCO3)OCC1CC (stereo unspecified)	3936	-1.4	85*	-10	/	1	6
22	CN1CCN(C(=O)c2cccc(-c3cc(O)c4ncccc4c3)c2)CC1	2779	5.8	0	-10	/	17	2
23	CCOC(=O)/C(C#N)=C/c1c(N2CCN(Cc3ccc4c(c3)OCO4)CC2)nc2c(C)cccn2c1=O	/	4.4	33	-11	2	11	4
24	Cc1nn(-c2ccccn2)c(N)c1N=O	3809	2.4	-3	-25	4	14	14
25	Cc1ccc2nc(C)c(=NO)c(C)nc2c1	/	3.8	12	/	/	4	9
26	Cn1c(N)c(C(=O)CSc2nc3ccccc3c(=O)n2CCCN2CCOCC2)c(=O)n(C)c1=O	4342	0.1	0	15	-1	3	10
27	COc1ccc(Cl)cc1S(=O)(=O)N1CCCC(C(=O)NCc2ccccn2)C1 (stereo unspecified)	5956	0.4	6	-12	-5	-6	3
28	COc1ccc(C(=O)OCC(=O)Nc2cc(S(=O)(=O)N3CCOCC3)ccc2N2CCCC2)cc1	4634	1.7	9	1	8	5	5
29	CCCC(=O)N(Cc1cc(=O)[nH]c2ccccc12)c1ccc(C)cc1	3556	6.4	16	-14	4	8	5
30	Cc1nc(-c2cccc(C(F)(F)F)c2)sc1C(=O)O	2612	6.3	-9	-26	0	4	2
31	CC(Sc1nnnn1-c1ccccc1)C(=O)Nc1ccc(N2CCN(C)CC2)cc1 (stereo unspecified)	4792	2.1	4	-9	4	0	0
32	COc1cc2c(C)nc(C)c(C#N)c2cc1OC	2961	1.7	1	-13	17	/	/
33	Cc1cccc(C(O)(C(=O)NNC(=O)CN2CCN(C)CC2)c2cccc(C)c2)c1	2486	1.0	12	-67	-6	14	7
34	CCCCc1ccc(NC(=O)Nc2cc(C)nn2C)cc1	3079	2.7	0	16	-5	7	1
35	Cc1ccc(C)c(NC(=O)c2cc(S(=O)(=O)N3CCCCC3)c[nH]2)c1	5174	4.7	-5	-33	-8	-4	3
36	CCc1ccc(C(=O)Nc2cc(S(=O)(=O)N3CCOCC3)ccc2N2CCOCC2)cc1	/	4.5	7	-8	/	6	5
37	NC1=NC(=O)C2(COC(c3ccncc3)OC2)S1 (stereo unspecified)	4324	6.2	16	-31	-2	-4	-2
38	OC1(c2ccccc2F)CCN(Cc2nnc(-c3ccccc3)o2)CC1	3747	2.7	1	-9	-7	/	/
39	N#CCC(=O)Nn1c(=S)[nH]c2ccccc2c1=O	4278	2.7	6	0	0	1	9
40	CCOc1cc(/C=C2/C(=N)N3C(=NC2=O)SN=C3S(=O)(=O)CC)ccc1OC(=O)c1ccco1	/	-1.4	-3	-23	-8	-11	-5

Gathered by group: those above with a thiophene ring, fused or not.
nr	Compound	Autofluor counter	Sa RN4220 lethal	Sa ugtP lethal	PrP 5UTR inh	BJeLR lethal	Mtb hypoxia inh	Mtb hypoxia inh growth
5	O=C(NCC(c1cccs1)N1CCOCC1)C1CCN(S(=O)(=O)c2cccc(C(F)(F)F)c2)CC1 (stereo unspecified)	5726	1.0	2	-8	-9	-6	5
12	CCOC(=O)CCN(c1ccccc1)S(=O)(=O)c1ccc(-c2ccc(=O)[nH]n2)s1	4346	8.5	2	-2	-2	2	-4

The main list resumes, starting 3 compounds before the break.
nr	Compound	Autofluor counter	Sa RN4220 lethal	Sa ugtP lethal	PrP 5UTR inh	BJeLR lethal	Mtb hypoxia inh	Mtb hypoxia inh growth
38	OC1(c2ccccc2F)CCN(Cc2nnc(-c3ccccc3)o2)CC1	3747	2.7	1	-9	-7	/	/
39	N#CCC(=O)Nn1c(=S)[nH]c2ccccc2c1=O	4278	2.7	6	0	0	1	9
40	CCOc1cc(/C=C2/C(=N)N3C(=NC2=O)SN=C3S(=O)(=O)CC)ccc1OC(=O)c1ccco1	/	-1.4	-3	-23	-8	-11	-5
41	CN1CC2([N+](=O)[O-])CC=C(Cl)C([N+](=O)[O-])(C1)C2 (stereo unspecified)	4238	4.5	3	-16	8	-3	3
42	Cc1cccc(Cn2c(-c3ccc[nH]c3=O)nc3ccccc32)c1	3298	0.8	-2	-19	18	0	-1
43	CC(NC(=O)C1CC1)c1ccc(-c2ccccc2)cc1 (stereo unspecified)	3780	3.0	1	-32	8	-6	-1
44	Cc1cccc(C(=O)Nc2nccs2)c1[N+](=O)[O-]	2232	3.9	3	-21	10	-5	-6
45	Cc1ccc2c(Cl)c(C)c(N3CCCC3)nc2n1	9523	9.3	-2	-23	-7	11	2
46	Clc1cccc(C2NCc3ccccc3-n3cccc32)c1 (stereo unspecified)	4246	5.3	13	-21	-9	3	14
47	CCCn1nc(C(=O)OCC(=O)c2ccc3c(c2)NC(=O)CO3)c2ccccc2c1=O	9295	6.0	-1	-31	-6	15	4
48	Cc1ccc2nc(C3CCN(CC(=O)N4CCCCCC4)CC3)[nH]c2c1	23345*	-3.0	-9	-48	-3	5	12
49	CN(CCc1cnn(C)c1)C(=O)C1CCC(=O)N(CC2CCCCC2)C1 (stereo unspecified)	4824	4.0	5	-15	-4	4	2
50	CN(c1ccccc1)S(=O)(=O)c1ccc(C(=O)OCC(=O)NCc2ccco2)cc1	2253	-2.1	-2	-14	11	/	/
51	CCOc1ccc(C(C(=O)NCC2CCCO2)N(Cc2cccnc2)C(=O)c2snc(C(N)=O)c2N)cc1 (stereo unspecified)	3668	-1.5	10	-10	-15	7	2
52	Cc1ccccc1-n1nc(C(=O)O)c(C)c(C#N)c1=O	4094	2.9	1	-5	0	5	6
53	CCOc1cc(N2CCOCC2)c(OCC)cc1NC(=O)C(NC(=O)c1ccco1)C(C)C (stereo unspecified)	2279	4.4	3	3	-7	/	/
54	CCN=C1SC(C(N)=O)CC(=O)N1CC (stereo unspecified)	4054	3.4	-3	-8	-6	3	3
55	Cc1cc(C)cc(-n2nnnc2SCC(=O)Nc2nc(-c3ccc(F)cc3)cs2)c1	10333	3.6	-1	-23	0	2	6
56	COc1ccc(CCN(C)C2CCCN(S(=O)(=O)c3ccccc3F)C2)cc1OC (stereo unspecified)	3109	3.3	8	-45	3	-1	11
57	NCC(c1ccc(Cl)cc1Cl)c1c[nH]c2ccccc12 (stereo unspecified)	3827	-13	-7	3	10	9	-7
58	Cc1nnc(SCC(=O)Nc2nccs2)s1	20118*	4.7	6	-12	-4	6	6
59	COC(=O)CNc1cccc(C(F)(F)F)c1	4405	4.1	9	-19	-3	16	7
60	O=C(COCC(=O)NN=Cc1ccccc1F)NN=Cc1ccccc1F	/	1.6	0	/	/	4	10
61	COc1ccc(-n2cnc3cc(NS(=O)(=O)c4ccccc4)ccc32)cc1	10978	8.6	35	-31	-12	0	0
62	COc1ccc(C2CC(c3cccc(C)c3)n3ncnc3N2)cc1 (stereo unspecified)	6237	2.1	-10	-15	-3	/	/
63	COc1cc(CC(C)C(C)Cc2ccc(O)c(OC)c2)ccc1O (stereo unspecified)	/	25	43	/	/	24	9
64	CC1CCN(S(=O)(=O)N2CCC(C(=O)NC3CCCC3)CC2)CC1	4951	7.8	8	-13	-1	13	10
65	Cc1ccccc1CN(C)CCc1ccccn1	3260	9.7	3	-19	-3	14	8
66	O=C(c1cc(=O)[nH]c2ccccc12)N1CCN(Cc2ccc3c(c2)OCO3)CC1	5234	-4.8	14	-7	/	4	10
67	Cc1ccc(S(=O)(=O)NC(=O)Nc2ccc(OC(F)F)cc2)cc1	/	2.1	4	-63	-4	11	-3
68	CC(C)(C)OC(=O)N1CCC(C(=O)N2CCCCCC2)CC1	3337	1.8	-2	-17	-6	-12	-11
69	Cc1cccc(N2CCN(C(=O)NC3CCCCC3)CC2C)c1 (stereo unspecified)	3787	3.2	11	-22	13	2	9
70	Cn1ncc(Br)c1NC(=O)Nc1ccc(OC(F)(F)F)cc1	4156	-1.4	-28	-2	-3	9	-3
71	O=C(Nc1ccc(N2CCCCC2)c(C(=O)O)c1)c1ccco1	3601	2.9	3	1	4	/	/
72	CCc1n[nH]c(=S)n1/N=C/c1ccc(NC(C)=O)cc1	4508	/	/	-5	-4	/	/
73	CN1CCN(c2cccc3c2C(=O)c2ccccc2C3=O)CC1	2218	12	2	6	6	22	17
74	Nc1scc(-c2ccncc2)c1Cl	?	18	7	-66	4	-6	8
75	C=CCn1c(COc2ccc(F)cc2)nnc1SCC(=O)NC1CCCC1	?	2.9	6	-2	9	12	1
76	CCCN(CCC)c1nc(Cl)nc(NCCN2CCOCC2)n1	4497	4.4	6	40	0	8	6
77	CN(C)C(=O)c1c2c(nc3ccccc13)-c1ccccc1CC2	11092	1.2	-1	-26	-5	3	12
78	O=[N+]([O-])c1ccc(/C=N/n2c(-c3cccnc3)n[nH]c2=S)cc1	2576	/	/	-14	-1	/	/
79	O=C(CN1CCOCC1)Nc1ccccc1Cl	6200	3.0	-1	-9	2	-1	4
80	Cc1cccc(NC(=O)c2ccc(S(=O)(=O)N3CC(C)OC(C)C3)cc2)n1 (stereo unspecified)	?	4.8	10	-18	11	0	3
81	Brc1c(CSc2nc3ccccc3o2)nc2ncccn12	4673	7.4	6	-54	10	/	/
82	CCCCOc1ccc(C(=O)N2CCCC2)cc1	16482*	6.2	9	-20	-5	/	/
83	O=C(NC(=S)NC1CCCC1)c1ccccc1Br	1917	2.2	4	-4	-23	/	/
84	CC1(C)Cc2cccc(OCC(=O)N3CCN(c4ccc(F)cc4)CC3)c2O1	?	5.4	-1	-8	-13	-4	7
